# Bfl-1 A1 inh = inhibitors of the anti-apoptotic protein A1, read as caspase activation; MEF A1-2A-BIM cells, Caspase-Glo 3/7 luminescence, 3 h; percent of clofoctol response, vehicle zero; caspase activation, % (no concentration beside the values); hit rate 0.066% among 330,000; AID 2462;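 active = over half of replicate activation scores above 10%, or exactly half above 10 with the replicate mean above 10; inconclusive = replicate mean below 10 yet half the replicates above 10; inactive = over half of replicates below 10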;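 note: wells of about 30 µL received 50 nL stock; many hits fall short of the cut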
# Beta2AR agonist = agonists of human beta-2 adrenergic receptor inducing internalization; response, % (test concentration not listed); hit rate 0.43% among 340,000; P07550; Am2.2-beta2AR cells, FAP receptor internalization, flow cytometry; reference of the scale not given here;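 active = response above a set limit, near 3 SD of response in nonfluorescent compounds, cut at about 42% in these data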;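 note: stock transfer was 100 nL into about 11 µL; a reference agonist was the positive control; negative values mostly stem from fluorescent compounds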
# Target sequence (P07550 whole entry, looked up): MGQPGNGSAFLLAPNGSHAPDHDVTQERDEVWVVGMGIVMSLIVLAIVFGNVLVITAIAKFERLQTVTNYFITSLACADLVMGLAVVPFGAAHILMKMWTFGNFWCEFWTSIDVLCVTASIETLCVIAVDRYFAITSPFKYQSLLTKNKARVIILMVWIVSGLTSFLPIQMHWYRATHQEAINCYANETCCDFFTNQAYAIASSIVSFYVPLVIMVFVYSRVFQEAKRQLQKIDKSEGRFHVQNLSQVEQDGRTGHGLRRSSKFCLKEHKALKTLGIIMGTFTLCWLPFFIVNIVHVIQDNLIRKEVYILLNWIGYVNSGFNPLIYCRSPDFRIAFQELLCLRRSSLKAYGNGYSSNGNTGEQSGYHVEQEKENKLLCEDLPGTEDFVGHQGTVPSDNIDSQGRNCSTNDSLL
# Calb FLC = C. albicans growth modulation with fluconazole; growth inhibition, % (no concentration beside the values); C. albicans CaCi-2 (fluconazole-resistant clinical isolate) + fluconazole, Alamar Blue growth, 48 h; hit rate 0.57% among 300,000; AID 1979;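 active = most replicates above 75%; inconclusive = exactly half above 75%; inactive = most below 75%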;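 note: all wells also contain fluconazole at 8 µg/ml as a sub-toxic cotreatment; 0% = median of DMSO wells and 100% = median of geldanamycin control wells; wells of about 8 µL received 7.5 nL stock; the first replicate is given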
# RanGTP-Impb inh = inhibitors of RanGTP-importin-beta interaction, primary screen, biochemical, FRET, CFP-Ran, YFP-importin-beta, homogeneous. cell-free CFP-Ran/YFP-importin-beta FRET ratio. inhibition, % (concentration not given with the values). hit rate 1.1% among 300,000. AID 2216;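 active = most replicates above 15%; inconclusive = exactly half above 15%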;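 note: 0% = DMSO wells and 100% = Ran loaded with GDP instead of GTP; wells of about 40 µL received 100 nL stock; the first replicate is given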
# LANA-H2A inh = blocks KSHV LANA binding to histone H2A/H2B. cell-free LANA-H2A/H2B peptide, fluorescence polarization. hit rate 0.6% among 320,000. Q9QR71. inhibition, % (no concentration beside the values); in the data active = inhibition mostly above about 10%, no sharp cut-off; inactive = mostly below about 6.7%;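 note: stock transfer was 7.5 nL into about 10 µL; 0% = median of vehicle wells and 100% = median of positive control wells; one replicate is shown; the record names a cut of 25% in any replicate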
# UCH37 inh = inhibitors of human deubiquitinating enzyme UCH37; purified proteasome/UCH37, Ub-AMC cleavage fluorescence; inhibition, % (concentration not given with the values); Q9Y5K5; hit rate 0.33% among 330,000;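 active = mean of two replicates above 20%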;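 note: 0% = compound-free wells with enzyme and 100% = wells lacking proteasome; stock transfer was 100 nL into about 20 µL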
# Target sequence (Q9Y5K5 whole entry, looked up): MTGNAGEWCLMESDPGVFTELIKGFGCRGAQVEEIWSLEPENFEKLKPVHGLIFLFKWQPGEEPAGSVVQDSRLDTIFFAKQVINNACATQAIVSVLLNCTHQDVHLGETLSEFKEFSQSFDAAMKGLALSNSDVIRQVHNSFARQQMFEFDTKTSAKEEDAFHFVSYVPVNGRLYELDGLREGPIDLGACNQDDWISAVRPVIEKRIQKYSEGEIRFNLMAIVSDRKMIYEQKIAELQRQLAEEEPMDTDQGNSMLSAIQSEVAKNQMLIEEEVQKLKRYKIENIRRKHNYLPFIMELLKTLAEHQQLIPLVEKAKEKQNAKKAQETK
#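 System: Proteasome-associated human UCH37 deubiquitinase; Input: 0.15 nM proteasome in added enzyme buffer; Also added: Ub-AMC substrate from 1 µM stock; Incubation: 30 min compound-proteasome preincubation then 25 min substrate reaction, room temperature; Detection: fluorescence, ex 355 nm, em 460 nm; Read-out: % inhibition of Ub-AMC cleavage fluorescence; Benchmarks: no-proteasome and no-compound wells.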
# Beta apoptosis = beta cell apoptosis inhibition; INS-1E cytokine-induced death, ATP luminescence, 48 h; percent of positive-control rescue, neutral wells zero; protection from apoptosis, % (no concentration beside the values); hit rate 0.8% among 300,000;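 active = all replicates at 75% or more, or half of them and the mean; inconclusive = half reach 75% but not the mean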;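 note: 0% = cytokine-treated negative control wells and 100% = positive control rescue; higher means more ATP so stronger rescue from cytokine killing; wells of about 40 µL received 100 nL stock; the first replicate is given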
# T cruzi inh = T. cruzi replication inhibition. T. cruzi beta-gal in NIH3T3, luminescence, 90 h. inhibition, % (concentration not given with the values). hit rate 1.4% among 300,000;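 active = mean inhibition across valid replicates above about 55%, limit read from the data; inconclusive = mean below that limit but half or more replicates reach it; inactive = mean below it, under half of replicates reach it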;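 note: signal also drops with host cell toxicity which is not excluded here; 0% = plate median of DMSO wells and 100% = zero luminescence signal; higher percent means less beta-gal luminescence so fewer parasites; stock transfer was 50 nL into about 50 µL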
# Numbers without * were called inactive; u = inconclusive; x = no result given.
1	CN(C)c1ccc(C(=O)N2CCNC(=O)C2CC(=O)Nc2ccc(F)cc2)cc1 (configuration not stated)
2	CCC(CC)C(=O)Nc1ccccc1NC(C)=O
3	c1csc(CNc2nc(-c3cccs3)nc3ccccc23)c1
4	CC1(C)CC[C@]2(C(=O)O)CC[C@]3(C)C(=CC[C@@H]4[C@@]5(C)CC[C@H](O)C(C)(C)[C@@H]5CC[C@]43C)[C@@H]2C1
5	CCOC(=O)N1CCN(CC(O)c2c[nH]c3ccccc23)CC1 (configuration not stated)
6	O=C1NC[C@H](CC2CCCCC2)N(CC2CCCCC2)C1=O
7	CCOc1cc(C(=O)OCC(=O)c2cc(C)n(CC3CCCO3)c2C)ccc1OCC(=O)N1CCOCC1 (configuration not stated)
8	N#Cc1ccc(CN2CCN(C(=O)CCNS(=O)(=O)c3ccc(F)c(Cl)c3)CC2)cc1

assay / entry	1	2	3	4	5	6	7	8
Bfl-1 A1 inh	-0.4	0.0	-0.6	1.0	1.0	0.7	-0.6	1.3
Beta2AR agonist	3	-1	-2	-1	10	-9	5	-4
Calb FLC	0	-9	-2	x	-6	0	23	x
RanGTP-Impb inh	3.5	2.3	5.2	x	-0.7	-5.3	3.0	x
LANA-H2A inh	1.1	-1.4	-1.4	-4.7	2.4	-3.5	0.2	-2.3
UCH37 inh	6.0	1.2	-23	-0.2	1.5	5.1	0.7	0.5
Beta apoptosis	0	x	-1	11	0	-11	-6	5
T cruzi inh	0	-6	44	x	-8	-6	10	x

9	CC1(C)Cc2ccccc2C(C(Cc2ccccc2)C(N)=O)=N1 (configuration not stated)
10	O=C(O)CCn1c(SCCOc2ccccc2)nc2ccccc21
11	Cc1cc(C)n(CC(O)COc2c(C)cccc2C)n1 (configuration not stated)
12	COc1ccccc1NC(=O)CSc1ccc2nnc(-c3cccnc3)n2n1
13	O=C(NCc1cc([N+](=O)[O-])ccc1O)c1cc(-c2ccncc2)nc2ccccc12
14	Cc1cc(C)nc(N2CCC(C(=O)Nc3ccc4c(c3)OCO4)CC2)n1
15	NC(=O)NC(=O)C(c1ccccc1)N1CCN(S(=O)(=O)Cc2ccccc2)CC1 (configuration not stated)
16	CCC(=O)Nc1sc2c(c1C(=O)N(C)C)CCCCC2

assay / entry	9	10	11	12	13	14	15	16
Bfl-1 A1 inh	1.6	0.4	0.6	1.9	0.0	-0.5	-0.1	-0.3
Beta2AR agonist	12	0	-35	4	16	7	1	3
Calb FLC	-6	3	-21	-4	19	-60	x	-19
RanGTP-Impb inh	u	0.4	3.1	u	0.5	u	x	0.7
LANA-H2A inh	6.5*	-3.0	2.3	-0.7	-1.9	3.3	-4.9	5.9
UCH37 inh	2.2	1.4	4.6	5.3	6.2	1.9	1.1	-0.1
Beta apoptosis	6	-2	4	-7	20	x	0	-3
T cruzi inh	-6	-14	-12	-14	-6	9	x	-5

17	CCc1c(C)sc(NC(=O)CCc2ccc(OC)cc2)c1C(N)=O
18	c1ccc(-c2nnc(CN3CCC4(CC3)OCCO4)o2)cc1
19	O=c1[nH]nc(CSCc2ccccc2Cl)[nH]1
20	O=C(NCCc1c[nH]c2ccccc12)Nc1ccccc1
21	Cc1nc2ccccc2nc1N/N=C/c1ccc(O)cc1O
22	CCC(=O)N1CCc2cc(S(=O)(=O)N(C)c3ccc(OC)cc3OC)ccc21
23	COCCC(=O)N1CCC(Oc2ccc(C(=O)N3CCCCCCC3)cc2)CC1
24	CCCCn1c(N)c(N(C)C(=O)c2ccccc2Oc2ccccc2)c(=O)[nH]c1=O

assay / entry	17	18	19	20	21	22	23	24
Bfl-1 A1 inh	-0.5	1.5	-0.1	-0.4	0.6	-1.0	1.6	2.0
Beta2AR agonist	-8	-6	0	1	-1	-21	-5	-4
Calb FLC	-3	5	15	-5	10	-3	-2	x
RanGTP-Impb inh	-3.8	-1.8	2.0	1.6	u	5.1	1.4	x
LANA-H2A inh	-0.9	-0.9	2.6	-1.9	-0.1	-2.9	2.1	1.7
UCH37 inh	0.1	7.8	0.4	2.7	x	2.7	2.5	5.3
Beta apoptosis	-6	2	x	0	86*	0	5	-8
T cruzi inh	1	-11	-2	-23	60*	4	-7	x

25	O=C(NC1CC2CCCC(C1)N2C(=O)Nc1ccccc1Cl)C1CC1 (configuration not stated)
26	CC(=O)N1CCc2cc(S(=O)(=O)NCCC3=CCCCC3)ccc21
27	O=C(Cc1ccc(Br)cc1)N1CCCCCC1
28	Cc1noc(C(=O)Nc2cccc(O)c2)c1Cl
29	COc1ccc(CC(=O)NCCc2ccc(Cl)cc2Cl)cc1
30	Cc1cccc(-n2c(SCC(=O)Nc3cccc(S(=O)(=O)NC4=NCCCCC4)c3)nc3ccccc3c2=O)c1C
31	Cc1ccc(C2=NS(=O)(=O)N(C)C(C(=O)NCc3ccco3)=C2)cc1
32	COc1ccc(CN2CCCC(CNC(=O)c3ccc(F)cc3)C2)cc1OC (configuration not stated)

assay / entry	25	26	27	28	29	30	31	32
Bfl-1 A1 inh	-0.2	-0.1	0.2	-4.0	0.6	-0.2	0.2	2.6
Beta2AR agonist	-1	-7	0	0	6	4	-8	-4
Calb FLC	8	-4	-4	14	19	-4	-2	-5
RanGTP-Impb inh	7.6	4.4	-2.8	5.6	-1.8	0.4	0.0	-2.1
LANA-H2A inh	-2.4	4.3	-6.7	-2.5	-1.7	x	-3.0	-1.5
UCH37 inh	4.2	4.1	1.8	-0.4	-0.5	1.4	8.6	-0.1
Beta apoptosis	-3	87*	-7	4	-2	15	-5	-2
T cruzi inh	-4	-14	11	8	10	2	-9	46

33	CC(C)c1ccc2oc(=O)cc(CN3CCOCC3)c2c1
34	Cc1cc(C(=O)CN2C(=O)NC3(CCCc4ccccc43)C2=O)c(C)n1Cc1cccs1 (configuration not stated)
35	O=S(=O)(Cc1nc2ccccc2s1)c1ccccc1
36	CC(C)(C)OC(=O)NCc1ccc(CNC(=O)c2[nH]cnc2C(=O)N[C@@H](Cc2ccccc2)C(=O)OCc2ccccc2)cc1
37	CCOc1ncccc1C(=O)N(CCC(C)C)c1c(N)n(Cc2ccccc2)c(=O)[nH]c1=O
38	O=C(/C=C/c1cccc(Br)c1)c1ccc2c(c1)OCO2
39	O=C(COC(=O)c1cc([N+](=O)[O-])ccc1N1CCOCC1)c1ccccc1
40	CCN(Cc1ccccc1)S(=O)(=O)c1c(C)n(C)c(=O)n(C)c1=O

assay / entry	33	34	35	36	37	38	39	40
Bfl-1 A1 inh	1.0	-0.2	-2.7	0.5	-0.4	1.6	-0.5	2.4
Beta2AR agonist	-1	6	-5	27	5	6	-7	-2
Calb FLC	0	-7	10	6	x	-24	-5	-3
RanGTP-Impb inh	-0.7	-0.3	3.6	-1.3	x	-1.7	-3.3	1.9
LANA-H2A inh	2.0	-4.0	-4.0	-4.8	-1.3	-1.7	-4.5	0.0
UCH37 inh	2.7	0.1	1.0	-0.2	4.1	x	6.5	0.2
Beta apoptosis	-5	6	-4	-4	-1	-3	-7	x
T cruzi inh	4	20	x	10	x	12	13	8

41	COc1ccc(CC(NC(C)=O)C(=O)NC2CCN(S(=O)(=O)c3cccc4ccccc34)CC2)cc1OC (configuration not stated)
42	Cc1nn(C)cc1C(=O)Nc1ccccc1Br
43	CC(=O)Oc1oc(-c2ccccc2)nc1C=Nc1ccc(N(C)C)cc1
44	CCOC(=O)c1cc(C(C)=O)c(=O)n(C)c1N
45	CCC(CC)C(=O)c1c[nH]c(C(=O)NCc2ccccc2)c1
46	O=C(CSc1ccc(-c2ccc(Br)cc2)nn1)NCC1CCCO1 (configuration not stated)
47	COc1ccc(NC(=O)c2cnc(C)cn2)c2ncccc12
48	Cc1ccc(C(=O)c2c3ccc(C(F)(F)F)cc3[n+]([O-])n2CCC(N)=O)cc1

assay / entry	41	42	43	44	45	46	47	48
Bfl-1 A1 inh	1.1	-0.4	-0.7	-0.7	0.0	0.6	x	-0.6
Beta2AR agonist	4	-16	4	-8	-7	0	x	-7
Calb FLC	0	27	1	0	4	x	0	4
RanGTP-Impb inh	-4.2	3.3	1.2	-2.1	2.9	x	u	-3.3
LANA-H2A inh	0.1	-10	1.5	-1.0	-3.2	-3.6	x	-5.5
UCH37 inh	1.4	1.4	5.3	-9.5	3.0	-0.9	2.0	2.5
Beta apoptosis	x	-5	8	-5	1	0	x	1
T cruzi inh	7	0	-17	0	-4	-13	-13	-5

49	CC(C)(C)c1cc(C(=O)N2CCc3ccccc3C2)ccn1
50	COC(=O)CCC(=O)OC1(C)C(=O)C2=CN(C3CC3)C(c3ccc(OC)cc3)=CC2=C(Br)C1=O (configuration not stated)
51	Cc1ccc(S(=O)(=O)NCc2cccnc2)c(C)c1
52	Cc1ccc(-c2nc(CN3CCCCC3)cc(CN3CCCCC3)c2O)cc1

assay / entry	49	50	51	52
Bfl-1 A1 inh	0.2	u	0.6	0.2
Beta2AR agonist	-9	7	-2	-5
Calb FLC	1	2	6	u
RanGTP-Impb inh	-0.6	u	-1.7	1.4
LANA-H2A inh	1.0	2.6	1.5	5.8
UCH37 inh	2.8	3.3	3.4	-333
Beta apoptosis	-19	-8	-3	x
T cruzi inh	7	9	-4	2

# Gathered by group, the compounds so far containing an aryl methoxy group
12	COc1ccccc1NC(=O)CSc1ccc2nnc(-c3cccnc3)n2n1
17	CCc1c(C)sc(NC(=O)CCc2ccc(OC)cc2)c1C(N)=O
22	CCC(=O)N1CCc2cc(S(=O)(=O)N(C)c3ccc(OC)cc3OC)ccc21
29	COc1ccc(CC(=O)NCCc2ccc(Cl)cc2Cl)cc1
32	COc1ccc(CN2CCCC(CNC(=O)c3ccc(F)cc3)C2)cc1OC (configuration not stated)
41	COc1ccc(CC(NC(C)=O)C(=O)NC2CCN(S(=O)(=O)c3cccc4ccccc34)CC2)cc1OC (configuration not stated)
47	COc1ccc(NC(=O)c2cnc(C)cn2)c2ncccc12
50	COC(=O)CCC(=O)OC1(C)C(=O)C2=CN(C3CC3)C(c3ccc(OC)cc3)=CC2=C(Br)C1=O (configuration not stated)

assay / entry	12	17	22	29	32	41	47	50
Bfl-1 A1 inh	1.9	-0.5	-1.0	0.6	2.6	1.1	x	u
Beta2AR agonist	4	-8	-21	6	-4	4	x	7
Calb FLC	-4	-3	-3	19	-5	0	0	2
RanGTP-Impb inh	u	-3.8	5.1	-1.8	-2.1	-4.2	u	u
LANA-H2A inh	-0.7	-0.9	-2.9	-1.7	-1.5	0.1	x	2.6
UCH37 inh	5.3	0.1	2.7	-0.5	-0.1	1.4	2.0	3.3
Beta apoptosis	-7	-6	0	-2	-2	x	x	-8
T cruzi inh	-14	1	4	10	46	7	-13	9

# Assay outcomes: PubChem BioAssay, several laboratories

# Not a hit list. About 4.3% of those tested had a hit in this group.
